# p53 mut binder = binders of human mutant p53. actives 0.4% (n = 17,000). small molecule microarray binding, anti-GST fluorescence. calls only. AID 624136;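 active means compounds whose four printed spots each glow above background more than chance allows, each with a p-value under 7%; compounds were printed on slides so no solution concentration is given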;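 further: about 2 pmol printed per array spot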
# c-Myc SMM = binds human c-Myc on microarray | calls only | P01106 | actives 1.5% (n = 17,000) | small molecule microarray, His-c-Myc binding, anti-His fluorescence;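 active means spot fluorescence over background with P-value below 7% in all four replicate spots, showing protein binding; compounds were printed on slides so no solution concentration is given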;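 further: score is binary with 100 for all four spots passing and 0 otherwise; about 2 pmol printed per array spot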
# Target sequence (P01106 whole entry, looked up): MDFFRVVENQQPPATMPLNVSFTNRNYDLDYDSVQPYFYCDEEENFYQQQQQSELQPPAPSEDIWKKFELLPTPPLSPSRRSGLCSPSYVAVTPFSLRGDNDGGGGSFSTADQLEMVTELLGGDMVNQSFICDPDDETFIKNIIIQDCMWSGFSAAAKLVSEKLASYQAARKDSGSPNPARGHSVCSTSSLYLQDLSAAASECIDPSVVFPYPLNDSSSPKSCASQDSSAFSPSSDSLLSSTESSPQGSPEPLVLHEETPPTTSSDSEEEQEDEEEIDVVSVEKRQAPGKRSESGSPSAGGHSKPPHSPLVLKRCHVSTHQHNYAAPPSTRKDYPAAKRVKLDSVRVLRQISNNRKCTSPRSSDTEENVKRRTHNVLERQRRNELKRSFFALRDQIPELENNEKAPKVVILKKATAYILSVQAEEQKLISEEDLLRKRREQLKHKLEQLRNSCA
# ID4 SMM = ID4 (human) binding; P47928; small molecule microarray, Flag-ID4 binding, fluorescence F/B; calls only; actives 1.2% (n = 31,000); AID 624137;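 active means spot signal over background at p below 0.07 in all four prints; compounds were printed on slides so no solution concentration is given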;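 further: a binder raises fluorescence above local background on the spot; about 2 pmol printed per array spot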
# Target sequence (P47928 whole entry, looked up): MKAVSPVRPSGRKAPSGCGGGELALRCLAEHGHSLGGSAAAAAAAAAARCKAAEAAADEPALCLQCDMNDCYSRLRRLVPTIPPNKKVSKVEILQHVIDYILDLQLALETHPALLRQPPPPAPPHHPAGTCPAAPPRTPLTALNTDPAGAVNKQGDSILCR
# STAT3 binder = STAT3 (human) binding | P40763 | Small molecule microarray, His-STAT3 binding, anti-His fluorescence | calls only | actives 0.2% (n = 17,000) | AID 624138;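 active means compounds whose four printed spots each show fluorescence over background unusually high for their array block, chance value under 7%; compounds were printed on slides so no solution concentration is given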;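 further: about 2 pmol printed per array spot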
# Calls only; i = inactive; x = not tested or not shown; + = active, no number.
# Screens by letter: A = p53 mut binder; B = c-Myc SMM; C = ID4 SMM; D = STAT3 binder
O=C1CC=C2C3CC4N(CCC45c4ccccc4N1C25)C/C3=C/CO (centres undefined)
  A: i | B: i | C: i | D: i
C=CCN1CCC23c4c5ccc(O)c4OC2/C(=N\NC(=O)c2ccccc2)CCC3(O)C1C5 (centres undefined)
  A: i | B: i | C: i | D: i
CN1C(=O)c2ccccc2NC(=O)C1Cc1ccccc1 (centres undefined)
  A: i | B: i | C: i | D: i
O=C(O)C1C2CCC(O2)C1C(=O)NCCc1ccccc1 (centres undefined)
  A: i | B: + | C: i | D: i
C=C(C)[C@H]1O[C@H]2CC[C@@]3(C)[C@@](O)(CC[C@H]4[C@@H]5OC(C)(C)[C@H]6C[C@@H]7C(=C)Cc8c(Cl)cc9[nH]c(c5c9c8[C@@]76O)[C@@]43C)[C@]23O[C@@H]3[C@H]1O
  A: i | B: i | C: i | D: i
CC(C)C(O)(C(=O)OCC1=CCN2CCC(O)C12)C(C)O (centres undefined)
  A: i | B: i | C: i | D: i
CCN1CC2(COC)CCC(O)C34C5CC6C(OC)CC(O)(C5C6O)C(C(OC)C23)C14 (centres undefined)
  A: i | B: i | C: i | D: i
CC[C@@H](CO)NC(=O)[C@@H]1C=C2c3cccc4c3c(cn4C)C[C@H]2N(C)C1
  A: i | B: + | C: i | D: i
CCCCCc1cc(OC)c(CC=C(C)C)c(O)c1C(=O)O
  A: i | B: i | C: x | D: i
CC(=O)OC[C@]12CCC(C)=CC1O[C@@H]1[C@H](O)[C@@H](O[C@H]3O[C@H](CO)[C@@H](O)[C@H](O)[C@H]3O)[C@@]2(C)C12CO2 (some centres undefined)
  A: i | B: i | C: i | D: i
C/C=C(/C)C(=O)OC1CCN2CC=C(COC(=O)C(O)(C(C)O)C(C)(C)O)C12 (centres undefined)
  A: i | B: i | C: i | D: i
O=C(N[C@H]1CN2CCC1CC2)c1ccc(Cl)cc1
  A: i | B: i | C: + | D: i
Nc1ncnc2nc(SCc3nc4ccc(I)cc4c(=O)n3-c3ccccc3)[nH]c12
  A: i | B: i | C: i | D: i
C[C@]1(C(=O)O)CCC[C@]2(C)c3cc(O)ccc3CC[C@@H]12
  A: i | B: i | C: i | D: i
CC=C1CN2C3CC1C1(C(=O)OC)C2CC2(c4ccccc4N(C)C32)C1O (centres undefined)
  A: i | B: i | C: i | D: i
CNCC(O)c1ccc(O)c(OC)c1 (centres undefined)
  A: i | B: i | C: i | D: i
CCOC(=O)CN1C(=O)CC(C[C@@H](O)C2C[C@@H](C)C[C@H](C)C2=O)CC1=O (some centres undefined)
  A: i | B: i | C: i | D: i
C=CC(C)(C)[C@]12C=C(OC)C(=O)N3/C(=C/c4cnc[nH]4)C(=O)N[C@@]31N(OC)c1ccccc12
  A: i | B: i | C: i | D: i
CCCN(C/C=C/I)C1CCc2ccc(O)cc2C1 (centres undefined)
  A: i | B: i | C: i | D: i
COc1ccc2[nH]cc(CCN)c2c1
  A: i | B: i | C: i | D: i
COc1ccc(C(=O)c2c(C)n(CCN3CCOCC3)c3cc(I)ccc23)cc1
  A: i | B: i | C: i | D: i
NC(=NCc1ccc(Cl)cc1)SCCCc1cnc[nH]1
  A: i | B: i | C: i | D: i
COc1ccc2c3c4n(c2c1)[C@@H](C=C(C)C)OOC(C)(C)C[C@@H]4N1C(=O)[C@@H]2CCCN2C(=O)[C@]1(O)[C@H]3OCC=C(C)C
  A: i | B: i | C: i | D: i
COc1ccc2[nH]cc(CCNCc3ccc(Br)cc3)c2c1
  A: i | B: i | C: i | D: i
CC(C)(Cc1c[nH]c2ccc(Cl)cc12)NCCOc1ccccc1OCC1CC1
  A: i | B: i | C: i | D: i
COc1cc(C(=O)OC2C[C@H]3CC[C@@H](C2)N3C)ccc1O (some centres undefined)
  A: i | B: i | C: i | D: i
C(#CCN1CCCC1)CN1CCCC1
  A: i | B: i | C: i | D: i
C[C@@H]1CN([C@@H](C)CO)C(=O)CCCn2cc(nn2)CO[C@@H]1CN(C)C(=O)Oc1ccc2ccccc2c1
  A: i | B: i | C: i | D: i
COc1cc2c3cc1Oc1cc(ccc1O)C[C@@H]1c4c(cc(OC)c(O)c4Oc4cccc(c4)C[C@@H]3N(C)CC2)CC[N+]1(C)C
  A: i | B: i | C: i | D: i
C[C@]12C=CC(=O)C=C1CC[C@@H]1C2CC[C@]2(C)C(=O)CCC12 (some centres undefined)
  A: i | B: i | C: i | D: i
Cc1ccc(C[N+](C)(C)C)o1
  A: i | B: i | C: i | D: i
C=C1C/C(=C/C)C(=O)O[C@@H]2CCN3CC=C(COC(=O)[C@]1(C)O)[C@H]23
  A: i | B: i | C: i | D: i
CC(C)c1cc2c(cc1O)[C@@]1(C)C[C@@H](O)CC(C)(CO)C1CC2 (some centres undefined)
  A: i | B: i | C: i | D: i
C=CCN1CC[C@]2(C)c3cc(O)ccc3CC1[C@@H]2C
  A: i | B: i | C: x | D: i
Cc1nc(N)sc1CCN
  A: i | B: i | C: i | D: i
CCC(CO)(C(=O)OC1CC2CCC(C1)N2C)c1ccccc1 (centres undefined)
  A: i | B: i | C: i | D: i
C=CC1CN2CCC3(C(=O)Nc4ccccc43)C2CC1/C(=C/OC)C(=O)OC (centres undefined)
  A: i | B: i | C: x | D: i
CC(C)(C)C(=O)C(Oc1ccc(Cl)cc1)n1cncn1 (centres undefined)
  A: i | B: i | C: i | D: i
CCCCCOc1c(OC)ccc2cc(C(=O)NCc3ccc4c(c3)OCO4)c(=O)[nH]c12
  A: i | B: i | C: i | D: i
CC(C)(C)NC[C@H](O)COc1cccc2[nH]c(C#N)cc12
  A: i | B: i | C: i | D: i
Ic1cncc(OC[C@@H]2CCN2)c1
  A: i | B: i | C: i | D: i
COc1ccc(CC2(CCc3ccncc3)C(=O)NC(=O)N(c3ccc(Cl)cc3)C2=O)cc1OC (centres undefined)
  A: i | B: i | C: i | D: i
CCN1C[C@]2(COC)CC[C@H](O)[C@]34C1[C@H](C[C@H]23)[C@@]1(O)C[C@H](OC)[C@H]2C[C@@H]4[C@@H]1[C@H]2OC(C)=O
  A: i | B: i | C: i | D: i
COc1ccc(-n2nc(C(F)(F)F)cc2-c2ccc(Cl)cc2)cc1
  A: i | B: i | C: i | D: i
COc1cc(CNCCc2c[nH]c3ccccc23)c([N+](=O)[O-])cc1OC
  A: i | B: i | C: i | D: i

# Some of these compounds in order of SMILES length, rising:
# Screens by letter: A = p53 mut binder; B = c-Myc SMM; C = ID4 SMM; D = STAT3 binder
Cc1ccc(C[N+](C)(C)C)o1
  A: i | B: i | C: i | D: i
Ic1cncc(OC[C@@H]2CCN2)c1
  A: i | B: i | C: i | D: i
CCCN(C/C=C/I)C1CCc2ccc(O)cc2C1 (centres undefined)
  A: i | B: i | C: i | D: i
CN1C(=O)c2ccccc2NC(=O)C1Cc1ccccc1 (centres undefined)
  A: i | B: i | C: i | D: i
O=C(O)C1C2CCC(O2)C1C(=O)NCCc1ccccc1 (centres undefined)
  A: i | B: + | C: i | D: i
CC(C)(C)C(=O)C(Oc1ccc(Cl)cc1)n1cncn1 (centres undefined)
  A: i | B: i | C: i | D: i
CCC(CO)(C(=O)OC1CC2CCC(C1)N2C)c1ccccc1 (centres undefined)
  A: i | B: i | C: i | D: i
CC(C)C(O)(C(=O)OCC1=CCN2CCC(O)C12)C(C)O (centres undefined)
  A: i | B: i | C: i | D: i
COc1cc(C(=O)OC2C[C@H]3CC[C@@H](C2)N3C)ccc1O (some centres undefined)
  A: i | B: i | C: i | D: i
COc1ccc(C(=O)c2c(C)n(CCN3CCOCC3)c3cc(I)ccc23)cc1
  A: i | B: i | C: i | D: i
CC=C1CN2C3CC1C1(C(=O)OC)C2CC2(c4ccccc4N(C)C32)C1O (centres undefined)
  A: i | B: i | C: i | D: i
Nc1ncnc2nc(SCc3nc4ccc(I)cc4c(=O)n3-c3ccccc3)[nH]c12
  A: i | B: i | C: i | D: i
CCN1CC2(COC)CCC(O)C34C5CC6C(OC)CC(O)(C5C6O)C(C(OC)C23)C14 (centres undefined)
  A: i | B: i | C: i | D: i
CC[C@@H](CO)NC(=O)[C@@H]1C=C2c3cccc4c3c(cn4C)C[C@H]2N(C)C1
  A: i | B: + | C: i | D: i
COc1ccc(CC2(CCc3ccncc3)C(=O)NC(=O)N(c3ccc(Cl)cc3)C2=O)cc1OC (centres undefined)
  A: i | B: i | C: i | D: i
CCOC(=O)CN1C(=O)CC(C[C@@H](O)C2C[C@@H](C)C[C@H](C)C2=O)CC1=O (some centres undefined)
  A: i | B: i | C: i | D: i
C=CC(C)(C)[C@]12C=C(OC)C(=O)N3/C(=C/c4cnc[nH]4)C(=O)N[C@@]31N(OC)c1ccccc12
  A: i | B: i | C: i | D: i
COc1ccc2c3c4n(c2c1)[C@@H](C=C(C)C)OOC(C)(C)C[C@@H]4N1C(=O)[C@@H]2CCCN2C(=O)[C@]1(O)[C@H]3OCC=C(C)C
  A: i | B: i | C: i | D: i
CCN1C[C@]2(COC)CC[C@H](O)[C@]34C1[C@H](C[C@H]23)[C@@]1(O)C[C@H](OC)[C@H]2C[C@@H]4[C@@H]1[C@H]2OC(C)=O
  A: i | B: i | C: i | D: i

# Following part:
# Screens by letter: A = p53 mut binder; B = c-Myc SMM; C = ID4 SMM; D = STAT3 binder
O=c1ccc2cc(OC3O[C@H](CO)[C@@H](O)[C@H](O)[C@H]3O)c(O)cc2o1 (some centres undefined)
  A: i | B: i | C: i | D: i
C/C=C(/C)C(=O)O[C@H]1C(C)=C2[C@H]([C@@H]1OC(=O)CCCCCCC)[C@@](C)(OC(C)=O)C[C@H](OC(=O)CCC)[C@@]1(O)[C@H]2OC(=O)[C@@]1(C)O
  A: i | B: i | C: i | D: i
CCC(C)[C@H]1C(=O)O[C@H](C(C)C)C(=O)N(C)[C@@H](C(C)C)C(=O)O[C@H](C(C)C)C(=O)N(C)[C@@H](C(C)C)C(=O)O[C@H](C(C)C)C(=O)N1C (some centres undefined)
  A: i | B: i | C: x | D: i
COc1ccc(CN2CCN(CCO)CC2)c(OC)c1C
  A: i | B: i | C: i | D: i
CC1(C)CCC[C@]2(C)c3cc(O)c(O)cc3C(=O)CC12 (some centres undefined)
  A: i | B: i | C: x | D: i
COc1cc(C(=O)O[C@H]2[C@@H]3C=CO[C@@H](O[C@@H]4O[C@H](CO)[C@@H](O)[C@H](O)[C@H]4O)[C@@H]3[C@@]3(CO)O[C@@H]23)ccc1O
  A: i | B: i | C: i | D: i
C=CCC1(C(C)CCC)C(=O)NC(=S)NC1=O (centres undefined)
  A: i | B: i | C: i | D: i
c1ccc2c(c1)cc1ccc3cccc4ccc2c1c34
  A: i | B: i | C: i | D: i
COC1CC(OC2CCC3(C)C(CCC4(O)C3CC(OC(=O)c3ccccc3)C3(C)C(O)(C(C)=O)CCC43O)C2)OC(C)C1OC1CC(OC)C(OC2OC(C)C(O)C(OC)C2O)C(C)O1 (centres undefined)
  A: i | B: + | C: i | D: i
COc1ccc2[nH]c3c(c2c1)CCN=C3C
  A: i | B: i | C: i | D: i
CO[C@H]1C=C2CCN(C)[C@H]2C2c3cc4c(cc3C(=O)O[C@@H]21)OCO4 (some centres undefined)
  A: i | B: i | C: i | D: i
COc1ccc2c(c1O)-c1c3c(cc4c1C(C2)N(C)CC4)OCO3 (centres undefined)
  A: i | B: i | C: x | D: i
COc1ccc(CNC(=O)/C=C/c2ccc3[nH]cc(CCN(C)C)c3c2)cc1
  A: i | B: i | C: i | D: i
NCC(=O)Nc1ccc(Br)cc1C(=O)c1ccccc1
  A: i | B: i | C: i | D: i
CCCCC/C=C\C/C=C\C/C=C\CCCCCCC(=O)NCCO
  A: i | B: i | C: i | D: i
CC(=O)c1c(C)n(Cc2ccccc2)c2c(Cl)c(Cl)c(Cl)c(OCC(=O)O)c12
  A: i | B: i | C: i | D: i
CN(C(=O)Cc1ccc(Cl)c(Cl)c1)[C@H](CN1CCCC1)c1ccccc1
  A: i | B: i | C: i | D: i
CCNC(=O)C1OC(n2cnc3c(N)ncnc32)C(O)C1O (centres undefined)
  A: i | B: i | C: i | D: i
C=C1[C@@]23C(=O)O[C@H](C)[C@]24O[C@@]2(C(=C)[C@]5(C=CC(=O)OC5(C)C)CC[C@]32C)[C@H](O)[C@@]1(C)OC4=O
  A: i | B: i | C: x | D: i
CC(CO)NC(=O)C1C=C2c3cccc4[nH]cc(c34)CC2N(C)C1 (centres undefined)
  A: i | B: + | C: x | D: i
C[C@@H]1CN([C@@H](C)CO)C(=O)CCCn2nncc2CO[C@H]1CN(C)C(=O)Oc1ccc2ccccc2c1
  A: i | B: i | C: i | D: i
O=C(O)C1=CCCN(CCOC(c2ccc(C(F)(F)F)cc2)c2ccc(C(F)(F)F)cc2)C1
  A: i | B: i | C: i | D: i
O=C(O)C1C2CCC(O2)C1C(=O)Nc1ccc(Cl)cc1 (centres undefined)
  A: i | B: i | C: i | D: i
CCCN(CCC)CCc1ccc(O)c(O)c1
  A: i | B: i | C: i | D: i
O=c1cc(O)c2ccccc2o1
  A: i | B: i | C: x | D: i
c1ccc2c(N3CCNCC3)cccc2c1
  A: i | B: i | C: i | D: i
CCC(=O)O[C@H]1CC[C@H]2[C@@H]3CCC4=CC(=O)CC[C@]4(C)[C@H]3CC[C@]12C
  A: i | B: i | C: i | D: i

# This is a subset; count on the stated rates, not on these rows.
